NPYLR7 ag = agonists of mosquito NPYLR7 receptor, primary screen, cell-based, Aedes aegypti, calcium fluorescence, mosquito biting behavior | Aedes aegypti neuropeptide Y-like receptor 7 (NPYLR7) | HEK293T NPYLR7/Galpha15, GCaMP6s calcium fluorescence | activation, % at 10 µM | actives 0.15% (n = 270,000) | AID 1259423, 2018; in the data active = activation above about 40%;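 note: 0% = vehicle and 100% = reference agonist at the receptor; some compounds past the cut are filed as inactive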
NPYLR7 ag max-min = second read-out of NPYLR7 ag, no call of its own (marks repeat the call); activation, %; measured here: Max-Min RFU normalised activation; some inactives read as strong as hits;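 span of the calcium signal over five minutes; 0% = vehicle and 100% = native peptide agonist; compound fluorescence can raise it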
Numbers without * were called inactive.

SMILES | NPYLR7 ag | NPYLR7 ag max-min
CCOc1ccc(S(=O)(=O)N2CCCCC2)cc1NC(=O)CSC | 4 | 0
CCN(CC)c1ccc(/C=C2/C(=O)N(c3nc(-c4ccc5ccccc5c4)cs3)N=C2C)cc1 | 4 | 13
Cc1ccccc1CSc1nnc(C(C)NC(=O)C2C[C@H]2c2ccccc2)n1-c1ccc(Cl)cc1Cl (some centres not stated) | -8 | -2
CCCc1c(C(=O)N2CCN(C)CC2)cnn1Cc1ccccc1 | 18 | 28
COc1cccc(-c2cccc(NC(=O)C3CCN(Cc4ccon4)CC3)c2)c1 | 4 | -2
CC(=O)NCCNC(=O)CC1(C)N=C(c2ccc(-c3ccccc3)cc2)N(C)O1 (configuration not stated) | 8 | 3
CCCCc1ccc(S(=O)(=O)Nc2ccccc2C(=O)NCc2ccc(Cl)cc2)cc1 | 2 | 15
Cc1ccc(NS(=O)(=O)c2ccc3[nH]cc(C(=O)O)c(=O)c3c2)cc1C | 1 | -2
Cc1nn(CC2(C)NCCc3[nH]cnc32)c(C)c1Cl (configuration not stated) | 1 | -3
CC(c1ccc(Cl)c(Cl)c1)S(=O)(=O)CCO (configuration not stated) | 6 | 4
O=C(CN1CCOC1=O)N1CC[C@@H](c2ccc3ccccc3c2)[C@H](O)C1 | -1 | -4
Cc1cc(C)cc(N2CCN(C(=O)CCc3ccccc3)C(C)C2=O)c1 (configuration not stated) | -8 | -8
CN(Cc1ccccc1)c1nc2c(c(=O)n(C)c(=O)n2C)n1Cc1ccccc1 | 3 | -3
Cc1cc(O)c(CN2CCN(CCO)CC2)c2c1C(=O)/C(=C/c1ccco1)O2 | 28 | 26
COc1cc(CN2CCN(S(=O)(=O)Cc3ccccc3)CC2)ccc1OC(F)F | 2 | 27
COc1ccccc1NC1=NC2(CCCC2)N=C(N)N1 | 25 | 21
O[C@@H]1CN(Cc2cnn(-c3ccccc3)c2)CC[C@H]1c1ccc(F)cc1 | 2 | 0
CC(C)c1cc(C(=O)NCCCc2csc(N)n2)n(C)n1 | 0 | -2
O=C(O)c1ccccc1CN(Cc1ccccn1)CC1CCCO1 (configuration not stated) | 2 | -1
Cc1csc(CN(C)c2ncccc2C(=O)N2CCCCC2)n1 | 8 | 4
Oc1ccc(C2CCCN2Cc2cc(Cl)cc3c2OCOC3)cc1 (configuration not stated) | 5 | 2
CC(C)COC(=O)OCN1C(=O)CN(CCN2CC(=O)N(COC(=O)OCC(C)C)C(=O)C2)CC1=O | 4 | -23
O=C1CCCc2occ(C(=O)N3CCC4(CC3)OCc3ccccc34)c21 | 3 | 4
CC(C)C(=O)NCCc1ccc(I)s1 | 5 | 2
CCOCC1CCN(C(=O)NC(c2ccccn2)C(C)C)C1 (configuration not stated) | -5 | -4
N#CC1(NC(=O)Cn2nnc(-c3ccc(Cl)cc3)n2)CCCCC1 | 4 | 4
Cc1ccc(N2C(=O)CC(C(=O)OCC(=O)N(C)CCC#N)C2c2cccs2)cc1 (configuration not stated) | -3 | -5
CCOC(=O)CNC(=O)N1CCN(c2nc(-c3ccc(C)cc3)nc(C)c2Cc2ccccc2)CC1 | 19 | 15
O=C(O)[C@H]1C[C@]2(CCCCN(CCO)C2=O)N(C(=O)OCc2ccccc2)[C@H]1c1ccco1 | 6 | 20
CC1(C(=O)Nc2ccc(Cl)c(Cl)c2)CCN1C(=O)CC1CC1 (configuration not stated) | 2 | 2
COc1ccc(Oc2cc(N3CCN(C(=O)N(C)C)C(C)C3)ncn2)cc1 (configuration not stated) | -9 | -5
COc1ccccc1NC(=O)N(Cc1cccc(C(F)(F)F)c1)CC1CC(c2ccccc2OC)=NO1 (configuration not stated) | 16 | 16
Cc1ncsc1CCC(=O)N1[C@@H]2CC[C@H]1CNC(=O)C2 | 11 | 6
COc1ccc([N+](=O)[O-])cc1N=Nc1c(C)[nH]n(-c2nc(-c3ccc(Cl)cc3)cs2)c1=O | -6 | -10
CC(C)Oc1cccc(C(=O)C2CCCN(C(=O)Cc3cnc4ncnn4c3)C2)c1 (configuration not stated) | 4 | 6
Cc1cc(Oc2ccc(F)cc2F)nc(SCc2cccc(Cl)c2)n1 | 2 | 1
COc1ccc(/C=C/C(=O)N2CCCC(c3nc(C)ncc3Cc3ccccc3)C2)cc1 (configuration not stated) | 6 | 6
COc1cccc(Cc2nsc(Oc3ccc(CC(=O)Nc4ccc(F)cc4)cc3)n2)c1 | 13 | 9
COc1ccc(/C=C2/N=C(c3cccc([N+](=O)[O-])c3)OC2=O)cc1OC(C)=O | -3 | -1
CCOc1cnn(-c2ccc(Cl)cc2)c(=O)c1Nc1ccc(C(=O)NCc2cccnc2)cc1 | 8 | 6
Cc1cc(C)n(C(=O)c2sccc2S(=O)(=O)N(C)c2ccc(F)c(F)c2)n1 | -3 | -6
COC(=O)c1nnn(-c2nonc2N)c1C(C)C | 1 | -2
CCOC(=O)c1ccc(S(=O)(=O)NCCOc2cc(N3CCN(C)CC3)ncn2)cc1 | -1 | -2
OC1=C2OCC(C=C1I)O2 (configuration not stated) | 1 | 50
COCC(=O)N1CCN(c2cc(Oc3ccc(C)cc3OC)ncn2)CC1 | -9 | -4
Cc1cc(OCc2cccnc2)c(C)c2c1CCC([C@H](C)C(=O)NC1CC1)[C@H]2O (some centres not stated) | -2 | -9
C=CCn1c(SCc2ccc(F)cc2)nc2c1c(=O)n(C)c(=O)n2C | 2 | 1
CC(C)c1onc(C(=O)N2C(C)CCCC2C)c1[N+](=O)[O-] (configuration not stated) | 9 | 10
CCc1nc2ccc(C(=O)NC3CCN(Cc4ccccc4)CC3)cn2c1N(C)Cc1ccc(NC(C)=O)cc1 | -16 | -20
CCn1ccc(C(=O)N(Cc2cccnc2)c2nc3c(C(C)C)cccc3s2)n1 | -1 | -4
CC1(C)NC(=O)N(CCCCOc2ccccc2Cc2ccccc2)C1=O | -6 | 1
O=C(NN=Cc1ccccc1O)C1(O)c2ccccc2-c2ccccc21 | -7 | 6
O=C(C1CCN(S(=O)(=O)c2ccc(F)c(F)c2)CC1)N1CCCc2ccccc21 | 3 | 2
Cc1oc(C)c(-c2ccc(Cl)cc2)c1C(=O)NCCc1c[nH]c2ccccc12 | 4 | 5
CCC1(C2CCN(C(=O)CCN3CCCCCC3=O)CC2)NC(=O)NC1=O (configuration not stated) | 10 | 10
O=C(CSc1nc2c(cnn2CCO)c(=O)[nH]1)NCc1ccco1 | 1 | -2
CC1CN(C(=O)CSc2nncs2)CCO1 (configuration not stated) | 8 | 5
Cc1ccc(C2(c3noc(CN4CCCC(C(=O)c5nccn5C)C4)n3)CCCC2)cc1 (configuration not stated) | -2 | -7
Cn1c(=O)[nH]c(=O)c2c1nc(N1CCN(CCCc3ccccc3)CC1)n2Cc1ccc(F)cc1 | -7 | -8
CN1C(=O)NC(c2cccc(Oc3ccccc3)c2)C2=C1CN(Cc1ccco1)C2=O (configuration not stated) | -3 | 7
Further records:
SMILES | NPYLR7 ag | NPYLR7 ag max-min
Cc1cccc(CS(=O)(=O)Nc2ccc3c(c2)C(=O)N(C)c2cc(C)ccc2O3)c1 | 6 | 0
O=C(NNC(=O)c1ccccc1F)c1ccc(F)c(S(=O)(=O)N2CCCCC2)c1 | 5 | 6
COc1ccc(C(=O)NN2C(=O)C3C4c5ccccc5C(C)(c5ccccc54)C3C2=O)cc1 (configuration not stated) | 4 | -1
Nc1nsc(N2CCN(CC(=O)Nc3ccc(F)c(F)c3)CC2)n1 | 0 | -2
COc1ccc(N2C(=O)CC(C(=O)Nc3ccc(Cl)cc3)SC2=NCCc2ccccc2)cc1 (configuration not stated) | 1 | 1
O=C(C1CC1)N(Cc1ccc(C(F)(F)F)cc1)CC1CC(c2ccc(F)cc2)=NO1 (configuration not stated) | 24 | 31
Cc1cc(C(F)(F)F)nc(SCC(=O)NC2=NC(=O)C(C)S2)n1 (configuration not stated) | -2 | -7
NNc1nc(Cl)nc2nc[nH]c12 | 7 | 6
CCC(C)(C)NC(=O)CONC(=O)C1CCCC1 | 10 | 8
CCc1nc2c(OCCc3cccc(OC)c3)cccn2c1N(C)C(=O)c1cccc(OC)c1 | 12 | 1
COc1cc(CNCc2ccccn2)ccc1OCC(=O)NC(C)(C)C | 14 | 7
O=C1NC(c2ccccc2)=C(C(=O)C(F)(F)F)C(c2ccc(OC(F)F)cc2)N1 (configuration not stated) | 0 | -1
Cn1c2c(c(=O)n(C)c1=O)C(c1cccnc1)C1=C(N2)c2ccccc2C1=O (configuration not stated) | 2 | -1
CCNC(=S)N(Cc1ccc(OCc2nc(CO)cs2)cc1)C1CC1 | 11 | 25
O=C(NNC(=S)NC1CC2CCC1C2)C1CC1 (configuration not stated) | -2 | -1
Cc1n[nH]c(C)c1CCc1n[nH]c(=O)n1-c1cc(F)ccc1F | 2 | -2
CNC(=O)NC(=O)CN1CCN(c2ccc(C(C)=O)cc2F)CC1 | 1 | -1
O=C(c1ccc2c(c1)OCCO2)N1CCCCC1 | -5 | -12
COc1ccc(C)cc1NCc1ccc(C#N)cc1 | 3 | 1
Cc1cccnc1CN1CCN(Cc2ccc3nsnc3c2)CC1 | -1 | 14
CC(C)(C)c1cc(/C=N\NC(=O)CSc2nc3ccccc3s2)cc(C(C)(C)C)c1O | -3 | -5
O=C(CCSc1ccccc1F)NCc1ccccc1F | 18 | 10
Cc1cc(C(=O)Nc2ccn(CCCN3CCCC3)n2)no1 | -6 | -7
COc1cc(Cl)cc(CN2CCN(Cc3ccsc3)C(CCO)C2)c1OC (configuration not stated) | 0 | -5
Cc1nnnn1-c1ccc(F)c(NC(=O)c2cccc3c2OCO3)c1 | 12 | 8
Cc1c(Br)c2ccccc2n1CC(=O)NC1CC1 | -2 | -3
Cc1cc(C)c(S(=O)(=O)N(CC(=O)N2CCc3sccc3C2c2ccc(Cl)cc2Cl)C2CC2)c(C)c1 (configuration not stated) | -1 | 5
CCCc1cc(N2CCN(Cc3cccc4[nH]ccc34)CC2)nc(C)n1 | 11 | 9
CC(Oc1ncnc2c(Cl)cc(Cl)cc12)C(=O)NCc1ccco1 (configuration not stated) | 3 | 2
COc1ccc(OC)c2sc(N(Cc3cccnc3)C(=O)CSc3ccccc3)nc12 | -4 | -5
COc1cc(C2Nc3cccc4cccc(c34)N2)cc(OC)c1O | 5 | 1
CN1CCC(NC(=O)Nc2ccc(Cl)c(F)c2)C1=O (configuration not stated) | 9 | 6
CNC(=O)CCNS(=O)(=O)c1ccc(C)c(N(C)S(C)(=O)=O)c1C | -3 | -8
O=C1CCC(C(=O)N2CCN(Cc3ccc(-c4noc(-c5ccco5)n4)cc3)CC2)=NN1 | -4 | -9
CC(C)c1c(NS(=O)(=O)c2cc(C(F)(F)F)ccc2Cl)c(=O)n(-c2ccccc2)n1C | 11 | 10
COc1ccc(Nc2nccc3[nH]c(-c4cccc(O)c4)nc23)cc1 | -6 | -11
CCOc1nc(-c2ccccc2C)n(-c2ccc(NC(=O)c3cc(C(F)(F)F)cc(C(F)(F)F)c3)cc2)n1 | 16 | 22
CC1(c2ccccc2)CC1Nc1nn2c(=O)cc(-c3ccccc3)nc2s1 (configuration not stated) | 2 | -1
COc1ccc(OCc2c(F)c(F)c(F)c(F)c2F)c([N+](=O)[O-])c1 | 2 | 8
COC(=O)CC1(NCc2ccccc2Br)CCOCC1 | -4 | -4
CCN(CC)c1ccc(S(=O)(=O)N2CCOCC2)cc1NC(=O)CCl | -2 | -7
CCCc1cc(=O)n(CC(=O)NC)c(-n2nc(C)cc2C)n1 | -1 | -1
COc1cc(S(=O)(=O)N2CCN(C)CC2)c(OC)cc1Br | 6 | 6
COc1ccc(OC)c(S(=O)(=O)NCc2ccccn2)c1 | -14 | -20
Cn1c(C(C#N)c2nc(C#N)c(C#N)nc2Cl)nc2ccccc21 (configuration not stated) | 1 | -2
COc1cc(CNn2c(C)n[nH]c2=S)cc(Br)c1OCC(=O)NC(C)(C)C | -1 | 1
Cn1c(=O)oc2ccc(C(=O)N3CCN4CCNC(=O)C4C3)cc21 (configuration not stated) | 4 | 2
CCCC(C)c1nc(N2CCN(C(=O)CSc3ccccc3)CC2)c2cnn(-c3ccccc3)c2n1 (configuration not stated) | 9 | 8
COc1cc2c(cc1OC)C1CN(C(=O)Nc3cccc(SC)c3)CC(=O)N1CC2 (configuration not stated) | -14 | -15

14 consecutive entries out of the list so far:
SMILES | NPYLR7 ag | NPYLR7 ag max-min
CC(C)c1c(NS(=O)(=O)c2cc(C(F)(F)F)ccc2Cl)c(=O)n(-c2ccccc2)n1C | 11 | 10
COc1ccc(Nc2nccc3[nH]c(-c4cccc(O)c4)nc23)cc1 | -6 | -11
CCOc1nc(-c2ccccc2C)n(-c2ccc(NC(=O)c3cc(C(F)(F)F)cc(C(F)(F)F)c3)cc2)n1 | 16 | 22
CC1(c2ccccc2)CC1Nc1nn2c(=O)cc(-c3ccccc3)nc2s1 (configuration not stated) | 2 | -1
COc1ccc(OCc2c(F)c(F)c(F)c(F)c2F)c([N+](=O)[O-])c1 | 2 | 8
COC(=O)CC1(NCc2ccccc2Br)CCOCC1 | -4 | -4
CCN(CC)c1ccc(S(=O)(=O)N2CCOCC2)cc1NC(=O)CCl | -2 | -7
CCCc1cc(=O)n(CC(=O)NC)c(-n2nc(C)cc2C)n1 | -1 | -1
COc1cc(S(=O)(=O)N2CCN(C)CC2)c(OC)cc1Br | 6 | 6
COc1ccc(OC)c(S(=O)(=O)NCc2ccccn2)c1 | -14 | -20
Cn1c(C(C#N)c2nc(C#N)c(C#N)nc2Cl)nc2ccccc21 (configuration not stated) | 1 | -2
COc1cc(CNn2c(C)n[nH]c2=S)cc(Br)c1OCC(=O)NC(C)(C)C | -1 | 1
Cn1c(=O)oc2ccc(C(=O)N3CCN4CCNC(=O)C4C3)cc21 (configuration not stated) | 4 | 2
CCCC(C)c1nc(N2CCN(C(=O)CSc3ccccc3)CC2)c2cnn(-c3ccccc3)c2n1 (configuration not stated) | 9 | 8

High-throughput results deposited in PubChem by Fisher Drug Discovery Resource Center.

This is a subset (hit frequency here may not be typical).
